# ClpP mod: qHTS Assay for Activators of ClpP. ATP-dependent Clp protease proteolytic subunit (Bacillus subtilis (strain 168)), P80244. purified B. subtilis ClpP, FRET peptide cleavage, 20 min. Potency, µM (highest dose often 57.5 µM), for the others: at the top dose activity change, negative = active. 1.9% of 340,000 active; active = well fitted falling curve with a large enough effect; inconclusive = small, poorly fitted or top-dose-only effect; inactive = no such curve, though single readings can be large or run the other way; also: potency is read from the fitted curve at half-maximal effect; the source files actives as falling curves though it sought activators and does not explain the sign; nearly all actives have a fitted effect of over 65% in size; many hits overshoot -100%
# Target sequence (P80244 whole entry, looked up): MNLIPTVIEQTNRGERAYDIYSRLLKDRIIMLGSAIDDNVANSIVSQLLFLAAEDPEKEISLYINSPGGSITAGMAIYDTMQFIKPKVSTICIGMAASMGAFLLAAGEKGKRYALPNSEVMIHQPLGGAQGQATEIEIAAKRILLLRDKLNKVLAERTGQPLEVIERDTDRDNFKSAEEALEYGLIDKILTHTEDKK
#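 ClpP 10 microg/mL final, pH 8 Tris/KCl buffer with BSA, glycerol, Tween-20; compound pinned in; FRET-FV substrate; RT 20 min; Ex320/Em430; ΔFRET vs ADEP 5.8 microM, DMSO, no enzyme.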
# gsp antagonist: qHTS for Antagonists of gsp, the Etiologic Mutation Responsible for Fibrous Dysplasia/McCune-Albright Syndrome: qHTS; Potency, µM (doses to about 76.9 µM), for inactives: top-dose activity change, negative = inhibition, actives largely listed as inhibitors; gsp-mutant cells, cAMP HTRF, 30 min; control for the full effect not named in the record; 0.4% of 340,000 active; active = falling curve of any shape with a large fitted effect; inconclusive = falling curve, mostly with a smaller effect; inactive = flat or rising curve; cell line not stated here;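 also: intracellular cAMP measured with PDE inhibitor Ro 20-1724 present during compound exposure; potency is read from the fitted curve at half-maximal effect; % is scaled to controls: 0 for no effect and ±100 for the full control effect; nearly all actives have a fitted effect of over 65% in size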
#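 Measurement of cellular cAMP by homogeneous time-resolved fluorescence following a 30 min compound exposure at 37C. The PDE inhibitor […] was present throughout; the assay buffer was DPBS with 0.05% BSA and 0.005% Tween 20.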
# gsp ag: qHTS for Agonist of gsp, the Etiologic Mutation Responsible for Fibrous Dysplasia/McCune-Albright Syndrome: qHTS. gsp mutant cells, cAMP HTRF, 30 min; control for the full effect not named in the record. Potency, µM (highest dose often 76.9 µM), inactives show top-dose activation (cAMP increase), usual class: activators. 0.13% of 340,000 active. AID 624287, 2012; active = well fitted activation curve with a large enough effect; inconclusive = small, poorly fitted or top-dose-only effect, or another doubt; inactive = no such curve, though single readings can be large or run the other way; cell line not stated here;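 also: phosphodiesterase inhibitor Ro 20-1724 added with compounds to block cAMP breakdown; potency is read from the fitted curve at half-maximal effect; nearly all actives have a fitted effect of over 60% in size; about a fifth of the inactives were tested at one dose only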
#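 Cells in DMEM/10% FBS with G418 were pretreated with compounds in DMSO plus […] (300 uM stock) for 30 min at 37C. cAMP was measured by HTRF (cAMP-d2 plus anti-cAMP antibody-K) after 30 min at room temperature.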
# Menin-MLL FL inh: qHTS Assay for Inhibitors Targeting the Menin-MLL Interaction in MLL Related Leukemias: Competition With Fluorescein Labeled MLL-derived Peptide; Fluorescence polarization, fluorescein-MLL peptide displacement from menin; FP activity change, % at 61.4 µM; AID 1766, 2009; 290,000 tested, under 10 active; inconclusive = falling polarisation curve, or a change in total fluorescence; inactive = total fluorescence flat and polarisation flat or rising; no compound was filed as active; the % refers to the polarisation; negative = inhibition;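 also: % of control where 0% means no effect; inhibitors lower the polarisation; unlabelled MLL peptide was the positive control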
# TRPV1 PAM: HTS Assay for Compounds that Act as Potentiators of the Vanilloid Receptor 1 | potentiation, % at 8.33 µM | TRPV1-expressing cells, Fluo-8 calcium influx, capsaicin EC20 potentiation; host cell line not named in the record; control for the full effect not named in the record | Transient receptor potential cation channel subfamily V member 1 (Homo sapiens), Q8NER1 | 0.02% of 320,000 active; active means potentiation above 80%; inconclusive means 30% to 80%; inactive means below 30%; also: 0% is about no effect
#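 TRPV1-expressing cells were cultured overnight at 35.5C and loaded with Fluo-8 calcium dye for 40 to 90 min at room temperature. After a 10 s baseline, compound was added and calcium influx was read kinetically for 3 min (ex 480/em 520 nm).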
# D2 potentiator: Beta-Arrestin HTS for Positive Allosteric Modulators of the Human D2 Dopamine Receptor: Potentiators. potentiation, % (no concentration beside the values). AID 624464, 2012. 0.23% of 360,000 active. DiscoveRx D2 beta-arrestin cells, luminescence, 90 min; 100% = 57 uM dopamine signal. D(2) dopamine receptor (Homo sapiens), P14416; active = potentiation of 50% or more; inconclusive = 30% to 50%; inactive = 30% or less;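 also: compound concentration not given in the record; tested on top of an EC20 dose of dopamine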
# Target sequence (P14416 whole entry, looked up): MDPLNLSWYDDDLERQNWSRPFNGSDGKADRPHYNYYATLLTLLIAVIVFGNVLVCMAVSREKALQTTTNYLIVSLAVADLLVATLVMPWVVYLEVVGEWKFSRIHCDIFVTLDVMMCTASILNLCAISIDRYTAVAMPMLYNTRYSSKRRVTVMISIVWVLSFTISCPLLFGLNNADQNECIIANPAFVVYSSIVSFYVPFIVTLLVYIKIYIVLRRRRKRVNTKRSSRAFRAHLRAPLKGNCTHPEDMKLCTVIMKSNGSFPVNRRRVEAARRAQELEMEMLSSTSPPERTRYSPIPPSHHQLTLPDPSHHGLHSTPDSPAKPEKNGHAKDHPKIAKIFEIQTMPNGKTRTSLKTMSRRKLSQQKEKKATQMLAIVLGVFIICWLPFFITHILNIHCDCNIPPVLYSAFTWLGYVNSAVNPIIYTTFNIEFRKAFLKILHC
#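 PathHunter beta-arrestin assay in DiscoveRx D2 cells. Compounds were added with an EC20 of dopamine (50 nM final) for 90 min at 37 deg C. Luminescence was read 1 h after detection reagent, with 57 uM dopamine as the EC100 control.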
# Sfp inh: qHTS Assay for Inhibitors of Bacillus subtilis Sfp phosphopantetheinyl transferase (PPTase); 4'-phosphopantetheinyl transferase ffp (Bacillus subtilis), Q9F4F7; Biochemical Sfp PPTase activity, qHTS; Potency, µM, for inactives: max response, negative = inhibition, hits mostly inhibitors; 3.5% of 310,000 active; active = well fitted inhibition curve with a large enough effect; inconclusive = small, poorly fitted or top-dose-only effect, or another doubt; inactive = no such curve, though single readings can be large or run the other way;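 also: the enzyme is Sfp with the accession as filed and its product quenches rhodamine fluorescence; potency is read from the fitted curve at half-maximal effect; 0% = enzyme reaction without inhibitor and -100% = no enzyme wells; top concentration of the series not given in the record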
#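 Compounds were incubated with enzyme (final 15 nM) for 15 min at room temperature before substrate addition started the reaction. Fluorescence at 525 nm excitation, 598 nm emission was recorded immediately and after 30 minutes.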
# An asterisk follows results filed as active; ? = inconclusive; . = no result given; [ ] = dose if it differs, or a comment. Random draw from the library; overall some 5.1% were active at least once.
canonical_smiles	Menin-MLL FL inh	D2 potentiator	TRPV1 PAM	ClpP mod	Sfp inh	gsp ag	gsp antagonist
COCCN(CC(=O)Nc1cccc(C)c1C)C(=O)c1cc(-c2ccncc2)nc2ccccc12	.	13	-2	-2.9%	.	-3%	-11%
CC(C)(C)C(=O)Nc1ccc(C(=O)NNC(=O)c2ccccc2)cc1	1.9	-6	-5	.	24%	9%[15.4 µM]	.
Cc1cccc(OCCCC(=O)O)c1C	1.5	-16	3	-5.5%	18%	21%	-12%
CC(C)C(=O)N1CCN(c2ccccc2NC(=O)Cc2ccc(Cl)cc2)CC1	-5.4	-1	-13	-0.3%	3%	-17%	-14%
COc1ccc(-c2cc(C(=O)N(C)CC(=O)Nc3ccccc3Cl)c3ccccc3n2)cc1OC	.	-12	-14	-17%	.	-3%[15.4 µM]	-8%
CCC(C)c1ccc(NC(=S)Nc2ccc(OC)cc2C)cc1 (stereo unspecified)	2.3	-15	?	7.7%	-8%	5%	?
CC(=O)c1cccc(NC(=O)CNC(=O)c2cc3ccccc3o2)c1	.	-11	27	-1.1%	20%	-22%	-22%
CCOC(=O)c1sc(-c2ccc(F)cc2)cc1N	1.7	-14	-10	?	-10%	19%	-14%
Cc1c([N+](=O)[O-])cc(C(=O)Oc2cccc(C(=S)N3CCOCC3)c2)cc1[N+](=O)[O-]	-3.0	-1	1	-1.7%	10%	18%	-8%
O=C1NC2=C(C(=O)CCC2)C(c2ccccc2[N+](=O)[O-])N1 (stereo unspecified)	-12	0	11	.	-11%	6%	-1%
Cc1nnc(Sc2c(-c3ccccc3)c3ccc(Cl)cc3[nH]c2=O)s1	3.2	1	-8	-20%	-14%	-33%[inhibitor]	-3%
O=[N+]([O-])c1ccc2c(c1)CCN2	.	-10	.	-1.6%	.	-48%[inhibitor]	1%
COc1ccc(C(=O)Nc2ccc3[nH]ccc3c2)cc1	.	-11	.	0.7%	.	-1%[15.4 µM]	-7%
O=C(NCCCN1CCOCC1)c1cc(-c2ccc(O)cc2)on1	3.9	-12	16	0.7%	15%	-20%	6%
COc1ccc(-c2ncncc2-c2ccc(OC)c(OC)c2)c(O)c1	0.9	-1	-10	20µM*	-5%	-14%[15.4 µM]	2%
CCOC(=O)CN1N=C(c2ccc(Cl)s2)CSC1=O	0.0	-7	-23	-4.5%	7%	11%	-3%
O=S(=O)(Cc1ccccc1)N1CCC(N2CCN(c3ccccc3)CC2)CC1	-7.1	-4	-4	-0.3%	-6%	-1%	10%
COC(=O)c1ccccc1SC1CC(=O)N(c2ccccc2)C1=O (stereo unspecified)	-2.0	0	-4	-1.4%	?	20%	14%
CCOc1ccc(C(=O)NC(C(=O)NCCc2ccc(OC(F)F)cc2)C(C)C)cc1 (stereo unspecified)	5.7	-1	21	.	-13%	-32%[inhibitor]	0%
CCOC(=O)c1c(NC(=O)COC(=O)c2ccc(S(=O)(=O)C(F)F)cc2)sc(C(=O)N(C)C)c1C	.	-24	.	-0.5%	.	-58%[inhibitor]	.
CCCn1c(SCC(=O)Nc2ccc(Cl)cc2)n[nH]c1=O	-0.3	-16	4	0.5%	-6%	0%[15.4 µM]	-5%
CCCC(=O)N1CCN(c2ccc(NC(=O)c3ccccc3)cc2)CC1	-1.6	-4	12	-3.6%	7%	-1%	-4%
Cc1ccc2ccc(S(=O)(=O)n3nc(C)cc3C)cc2c1	-0.3	-11	1	-3.2%	-9%	-23%	-27%
COc1ccc(NC(=O)CSCC(=O)N2CCCc3ccccc32)cc1	.	-3	13	-2.4%	.	?	3%
Cc1ccc(S(=O)(=O)c2ncccc2N)cc1	2.5	-16	7	4.4%	11%	-1%	-7%
COc1ccc(C(CC(=O)Nc2ccc(C)cc2)NC(=O)C(F)(F)F)cc1 (stereo unspecified)	1.4	-29	23	0.6%	8%	-44%[inhibitor]	3%
COc1ccccc1C1CC(c2ccc(NS(C)(=O)=O)cc2)=NN1S(=O)(=O)c1ccccc1 (stereo unspecified)	.	0	?	-1.3%	24%	?	-21%
COc1ccc(C(=O)N2CCCC(c3nc(-c4ccc(OC)c(OC)c4)no3)C2)c(OC)c1 (stereo unspecified)	1.6	-4	-8	28µM*	13%	-39%	-15%
CCN(CC)CCCN(Cc1cc2cc3c(cc2[nH]c1=O)OCO3)C(=S)Nc1ccccc1	-8.1	-8	6	.	-1%	-7%	-5%
Cn1c(=O)oc2cc(S(=O)(=O)N3CCC(C(=O)N4CCc5ccccc5C4)CC3)ccc21	3.3	1	?	0.0%	19%	2%	8%
CCOC(=O)c1c(C)c(C#N)c2c3ccccc3ccn12	0.9	-10	-1	-6.8%	15%	10%	20%
COCCN(C(=O)CC1OC(=O)c2ccccc21)c1c(N)n(Cc2ccccc2)c(=O)[nH]c1=O (stereo unspecified)	.	1	-16	-0.1%	.	11%	10%
CCCNC(=O)CSc1ccc(S(=O)(=O)N2CCCCC2)cn1	.	-8	-1	0.7%	.	11%	11%
O=C1C(Oc2ccccc2)C(c2cccs2)N1Cc1ccc2c(c1)OCO2 (stereo unspecified)	11	-9	-17	-0.7%	13%	1%	-28%
O=S(=O)(Nc1ccc(C(F)(F)F)cc1)c1cnc[nH]1	-1.7	-1	0	0.8%	7%	0%	34%
CCOc1ccc(S(=O)(=O)N(C)c2ccc(OCC(=O)NCC3CCCO3)cc2)cc1 (stereo unspecified)	0.0	2	6	-0.1%	16%	-3%[15.4 µM]	6%
COc1ccc(CCNC(=O)C2CCCN(S(C)(=O)=O)C2)cc1 (stereo unspecified)	-0.4	-4	-3	.	15%	18%	6%
O=c1[nH]c(SCc2nc3ccccc3c(=O)n2-c2ccccc2C(F)(F)F)nc2ccccc12	?	7	-4	1.3%	1%	27%	26%
COc1ccc(-c2noc(CSc3nnc(CCc4ccccc4)n3-c3ccccc3)n2)cc1OC	4.3	-8	5	0.1%	?	-32%[inhibitor]	-4%
COc1cc2c(cc1OC)C(c1ccc(SC)cc1)CC(=O)N2 (stereo unspecified)	0.0	-1	2	-1.4%	89µM*	19%	-2%
COc1ccc(-c2nnc3ccc(SCC(=O)Nc4nccs4)nn23)cc1OC	11	-2	-4	-3.2%	15%	26%	3%
O=C(NCc1cccs1)c1cc(-c2ccccc2)nc2ccccc12	2.2	-35	0	-3.2%	-19%	0%	-19%
Cc1ccc(S(=O)(=O)N2CCCCC2)cc1C(=O)NCCc1ccccc1	.	-7	16	-1.4%	-11%	0%	-1%
O=C(NCc1ccccc1Cl)c1ccc2c(=O)n(CC3CCCO3)c(=S)[nH]c2c1 (stereo unspecified)	-6.9	-7	-2	.	12%	18%[15.4 µM]	-32%

# Of the compounds above, these contain an aryl thioether with sulfur outside any ring.
canonical_smiles	Menin-MLL FL inh	D2 potentiator	TRPV1 PAM	ClpP mod	Sfp inh	gsp ag	gsp antagonist
Cc1nnc(Sc2c(-c3ccccc3)c3ccc(Cl)cc3[nH]c2=O)s1	3.2	1	-8	-20%	-14%	-33%[inhibitor]	-3%
COC(=O)c1ccccc1SC1CC(=O)N(c2ccccc2)C1=O (stereo unspecified)	-2.0	0	-4	-1.4%	?	20%	14%
CCCn1c(SCC(=O)Nc2ccc(Cl)cc2)n[nH]c1=O	-0.3	-16	4	0.5%	-6%	0%[15.4 µM]	-5%
CCCNC(=O)CSc1ccc(S(=O)(=O)N2CCCCC2)cn1	.	-8	-1	0.7%	.	11%	11%
O=c1[nH]c(SCc2nc3ccccc3c(=O)n2-c2ccccc2C(F)(F)F)nc2ccccc12	?	7	-4	1.3%	1%	27%	26%
COc1ccc(-c2noc(CSc3nnc(CCc4ccccc4)n3-c3ccccc3)n2)cc1OC	4.3	-8	5	0.1%	?	-32%[inhibitor]	-4%
COc1cc2c(cc1OC)C(c1ccc(SC)cc1)CC(=O)N2 (stereo unspecified)	0.0	-1	2	-1.4%	89µM*	19%	-2%
COc1ccc(-c2nnc3ccc(SCC(=O)Nc4nccs4)nn23)cc1OC	11	-2	-4	-3.2%	15%	26%	3%

# Source: PubChem BioAssay
